VACV mCherry inh – vaccinia inhibition (mCherry reporter) | Vaccinia virus mCherry reporter infection, fluorescence; about a quarter of the inactives have no number | AID 720579 | Potency, µM (highest dose often 36.5 µM), for the others: at the highest dose activity change, negative = inhibition, most hits filed as inhibitors | hit rate 0.63% among 310,000; active = well fitted inhibition curve with a large enough effect; inconclusive = small, poorly fitted or top-dose-only effect; inactive = no such curve, though single readings can be large or run the other way; tested in A549 cells; further: nearly all actives have a fitted effect of over 35% in size; inactives centre near -10
VACV Venus inh – vaccinia inhibition (Venus reporter). hit rate 0.46% among 330,000. Vaccinia virus Venus reporter expression, fluorescence. Potency, µM (top dose mostly 36.5 µM), for inactives: at the top dose activity change, negative = inhibition, hits mostly inhibitors; active means well fitted inhibition curve with a large enough effect; inconclusive means small, poorly fitted or top-dose-only effect; inactive means no such curve, though single readings can be large or run the other way; tested in A549 cells; further: nearly all actives have a fitted effect of over 30% in size; inactives centre near -10
The depositor's hits bear a star; i = inactive; ? = inconclusive; . = no result given; & = joins results of further samples. On the % scale 0 is the no-effect control and ±100 the full control effect; potency means the concentration at half of the fitted maximal effect.

SMILES | VACV mCherry inh | VACV Venus inh
Cc1c(C(=O)NC(=S)Nc2ccc(NC(=O)c3cccs3)cc2)oc2ccccc12 | -8% | -8%
CC1Cc2ccccc2N1S(=O)(=O)c1cccc(C(=O)NCc2ccco2)c1 (centres undefined) | -11% | -13%
Cc1cc(C)nc(SCC(=O)c2ccc(O)cc2O)n1 | i | -13%
C(=N\N(c1ccccc1)c1ccccc1)/c1ccccn1 | ? | 2%
O=C(CN1CCN(c2ccccc2O)CC1)NC(=O)NC1CCCC1 | -10% | -15%
COc1ccc(S(=O)(=O)N2CCCCC2)cc1 | -13% | -11%
O=C(Oc1ccc2ccc(=O)oc2c1)N1CCOCC1 | -8% | -6%
O=C(N/N=C/c1ccco1)c1ccc(NC(=O)c2ccc(Cl)cc2)cc1 | 4% | 7%
Cc1nn(C)c(Cl)c1C(=O)NCC(=O)Nc1ccc(C(C)C)cc1 | -13% | -15%
CN(CC(=O)Nc1ccc(F)c(F)c1F)C(=O)C1(c2ccccc2)CC1 | i | -3%
COC(=O)N1CCc2c(sc(NC(=O)C3COc4ccccc4O3)c2C(N)=O)C1 (centres undefined) | -23% | -14%
COc1ccc(CCNC(=O)Cn2cccc2C(=O)c2ccccc2C)cc1OC | -29% | -22%
CCOc1ccc(N=C2NC(=O)S/C2=C\c2ccc(Cl)cc2)cc1 | i | -5%
Cc1onc(-c2c(F)cccc2Cl)c1C(=O)OCC(=O)c1c[nH]c2ccccc12 | i | -15%
COc1ccc(C(=O)c2oc3ccccc3c2NC(=O)c2cc(=O)c3ccc(C)cc3o2)cc1Cl | 4% | -9%
Cc1ccc(C2=NS(=O)(=O)N(C)C(C(=O)NCc3ccc(F)cc3)=C2)cc1 | i | -7%
Cc1ccccc1OCC(=O)NNC(=O)C1CCN(c2ncnc3sc(C)c(C)c23)CC1 | -17% | -25%
Cc1ccccc1-c1nc(CS(=O)(=O)CC(=O)Nc2cccc(C(F)(F)F)c2)c(C)o1 | -9% | -2%
Cn1nc(C(=O)NNC(=O)c2cccc(Cl)c2)ccc1=O | i | -16%
N=c1c2c3c(sc2ncn1CCN1CCOCC1)CCCC3 | -13% | -10%
COc1ccc(C2Nc3ccccc3C(=O)N2Cc2ccccc2)cc1COc1ccccc1F (centres undefined) | 19% | -14%
OC(c1ccc(F)cc1)c1ncc(-c2ccc3ccccc3c2)[nH]1 (centres undefined) | ? | ?
COc1ccc(-c2nn(-c3ccccc3)cc2/C=C/C(=O)NCCCn2ccnc2)cc1OC | -2% | -12%
COC(=O)C1(C(F)(F)F)N=C2Sc3ccccc3N2C(N2CCOCC2)=N1 (centres undefined) | 10% | -1%
CCN(C(=O)c1cc([N+](=O)[O-])ccc1NCc1cccnc1)c1ccccc1 | -14% | -7%
CC(=O)c1ccc(NC(=O)C2CCCN(S(=O)(=O)c3ccc(Br)s3)C2)cc1 (centres undefined) | -5% | -7%
O=S(=O)(c1ccccc1)N1CCN(Cc2ccccc2)c2ccccc21 | -10% | -8%
CCOc1ccc(-c2ccc(SCC)nn2)cc1 | i | -17%
COc1ccccc1NS(=O)(=O)c1cccc(C(=O)N2CCCCCC2)c1 | -7% | -13%
Cc1ccc(C(C(=O)NCc2ccco2)N(C(=O)Cc2cccs2)c2cccnc2)cc1 (centres undefined) | -7% | -2%
Cc1ccc(CCP(=O)(O)CN2CCOCC2)cn1 | -21% | -12%
CCN(C(=O)CN1C(=O)COc2ccc(S(=O)(=O)N3CCOCC3)cc21)c1cccc(C)c1 | -6% | -15%
CCOc1ccccc1NC(=O)c1cc2c(=O)[nH]c3ccccc3c2s1 | -3% | 6%
Cc1ccc(NC(=S)c2nc3ccccc3s2)cc1 | . | -23%
Cc1cnc(NC(=O)C2(c3ccccc3)CC2)s1 | i | -22%
CCCCNc1oc(-c2ccc(COc3ccc(OC)cc3)o2)nc1C#N | 1% | 0%
COc1ccc(S(=O)(=O)CCC(=O)N2CCN(c3ccc(C(C)=O)cc3)CC2)cc1 | ? | -21%
COc1ccc(CCNC(=O)c2oc(=O)c3ccccc3c2-c2ccccc2)cc1OC | -4% | -8%
COc1ccc(C(=O)N(c2ccccc2)C2C=CS(=O)(=O)C2)cc1 (centres undefined) | -9% | -7%
CCCCCCSC1=C(C#N)C(=O)NC2(CCCCC2)S1 | -4% | -5%
Cc1ccc(F)c(S(=O)(=O)NC(=O)C2(C)CCN2C(=O)CCc2cccs2)c1 (centres undefined) | i | -2%
Cc1ccc2ncc(C(=O)NCc3ccccc3Cl)c(=O)n2c1 | -27% | -19%
COc1ccc(OC(C)C(=O)NCC2CCCO2)cc1 (centres undefined) | -11% | -12%
COCCn1c(=O)[nH]c2cc(C(=O)Nc3cccc(C(C)=O)c3)ccc2c1=O | -7%&4% | -3%&-2%
CCCn1c2ccccc2c2cnn(CC(=O)NCCCN3CCCCC3)c(=O)c21 | -3% | -3%

4 of these compounds in another layout:
Cc1ccc(CCP(=O)(O)CN2CCOCC2)cn1
  VACV mCherry inh: -21%
  VACV Venus inh: -12%
CCN(C(=O)CN1C(=O)COc2ccc(S(=O)(=O)N3CCOCC3)cc21)c1cccc(C)c1
  VACV mCherry inh: -6%
  VACV Venus inh: -15%
CCOc1ccccc1NC(=O)c1cc2c(=O)[nH]c3ccccc3c2s1
  VACV mCherry inh: -3%
  VACV Venus inh: 6%
Cc1ccc(NC(=S)c2nc3ccccc3s2)cc1
  VACV mCherry inh: .
  VACV Venus inh: -23%

The list goes on:
SMILES | VACV mCherry inh | VACV Venus inh
CCN(C(=O)CSc1nc2ccccc2n1Cc1ccc(C(=O)OC)cc1)c1ccccc1 | -9% | 3%
CC(=Cc1ccccc1)C=C1SC(=S)N(CCCC(=O)Nc2ccc(C(=O)O)cc2)C1=O | i | -2%
Cc1ccc(-n2c(=O)c3c4c(sc3n(Cc3ccccc3F)c2=O)CCC4)cc1C | -6% | -8%
NC(=NCCc1ccccc1)NS(=O)(=O)c1cccs1 | i | -9%
Cc1ccc2c(c1)C1CN(C)CCC1N2C(=O)/C(C#N)=C/c1ccc2c(c1)OCO2 (centres undefined) | ? | -21%
Cn1c(=O)c(C(=O)NCCO)c(O)c2ccccc21 | . | -11%
COc1ccc(Cl)cc1NC(=O)Cn1nnc2sc(-c3ccccc3)cc2c1=O | -11% | 4%
CCOc1ccc(NC(=O)C(=O)N/N=C/c2cccnc2)cc1 | -10% | -13%
COc1ccc(NC(=O)c2cc(Br)ccc2Cl)c([N+](=O)[O-])c1 | -4% | -11%
CCC(C)c1ccc(O)c(NC(=O)c2cncc(Br)c2)c1 (centres undefined) | -21% | -18%
O=C(N/N=C/c1ccc(OCc2cnc(Cl)s2)cc1)c1ccncc1 | -27% | -22%
O=C(NCCN1CCOCC1)C1CCC(=O)N1C1CCCCC1 (centres undefined) | -6% | -2%
COc1cc2oc(=O)c(CC(=O)N3CCCCC3)c(C)c2cc1Cl | -3% | 3%
COc1ccc2c(c1)c1c(c(=O)n(-c3ccccc3C)c(=O)n1CC(=O)N1CCCC1)n2C | -3% | -15%
CCCNC(=O)CSc1nnc(NC(=O)C2CC(=O)N(c3ccccc3OC)C2)s1 (centres undefined) | -13% | 3%
N#Cc1ccc(-c2ccc(OCC3CNC(=O)O3)cc2)cc1 (centres undefined) | -2% | -16%
Cc1ccc(OC(C)C(=O)N2CCc3ccccc32)c([N+](=O)[O-])n1 (centres undefined) | -3% | -13%
COC(=O)c1ccc(CN(C)S(=O)(=O)c2ccc(C)cc2)o1 | -3% | -16%
COc1ccccc1N1CCN(C(CNC(=O)C2CCCCC2)c2cccnc2)CC1 (centres undefined) | i | -8%
CC#CC[N+](C)(C)CCCCCC | i | -12%
CNc1nc(NCc2ccc(C)cc2C)c2sccc2n1 | -22% | -23%
O=C(CCNS(=O)(=O)c1ccc2c(c1)CCN2C(=O)C1CC1)N1CCN(c2cccc(Cl)c2)CC1 | -17% | -6%
O=C(Nc1ccc(Oc2ccccc2)cc1)c1cnc2n(c1=O)CCS2 | ? | -28%
COc1ccc([C@H]2C[C@@H](O)[C@H](n3cc(COC(=O)c4ccccc4)nn3)CN2C(=O)C2CCCCC2)cc1 | i | -4%
CCOc1ccc2nc(SCC(=O)Nc3ncccn3)[nH]c2c1 | -10% | -5%
COCCNC(=O)C1CC(c2ccc(C(F)(F)F)cc2)=NO1 (centres undefined) | i | -7%
CC(=O)NC1=C(N2CC2C)C(=O)C(NC(C)=O)=C(N2CC2C)C1=O (centres undefined) | 0% | -11%
CCOC(=O)c1c(NC(=O)c2ccc(S(=O)(=O)N3CCCC(C)C3)cc2)sc2c1CC(C)(C)NC2(C)C (centres undefined) | -23% | -19%
Cc1ccc(-c2nc(CN3C(=O)CN=C(c4ccccc4)c4cc(Cl)ccc43)c(C)o2)cc1 | -12% | -11%
COc1ccc(C(=O)N2CCN(Cc3cc(OC)c(O)c(OC)c3)CC2)cc1OC | 2% | 0%
O=C(c1cccc(S(=O)(=O)N2CCCC2)c1)c1cccc(S(=O)(=O)N2CCCC2)c1 | . | 5%
N#CC(C#N)=Cc1ccc(O)c(O)c1 | -7% | -15%&-8%&-10%
COc1cccc(C(=O)NCC(c2cccs2)N2CCc3ccccc32)c1 (centres undefined) | 0% | -22%
O=C(NC1CC1)C1=C[C@@H](c2ccc3c(c2)OCO3)C[C@@H](OCc2ccc(CO)cc2)O1 | i | -12%
CCc1ccc(Nc2n[n+](-c3ccccc3)c(-c3c(Cl)cccc3Cl)s2)cc1 | ? | 8.9µM*
CC(=O)N(C)C1(c2nnnn2CCOC(=O)Nc2cccc3ccccc23)CCCC1 | . | -12%
CCN(CCCNC(=O)Cn1ncc2c3ccccc3n(C)c2c1=O)c1cccc(C)c1 | -7% | 1%
CCOC(=O)c1cc(C)sc1NC(=O)CSc1nnnn1C | -3% | -9%
CC1(C)C2([N+](=O)[O-])CN(CCO)CC1([N+](=O)[O-])CN(CCO)C2 | 6% | 19%
Cc1cc(C(=O)NCc2csc(-c3ccccc3)n2)no1 | i | -10%
NC(=S)Nn1c(CCC(=O)O)ccc1-c1ccccc1 | -6% | -9%
CC(C)(C)NC(=O)NC(=O)CN1CCN(C(c2ccccc2)c2ccccc2)CC1 | -18% | -10%
NNC(=S)Nc1ccccc1Cl | ? | -9%
Cc1ccc(C(=O)NCC(=O)OCC(=O)Nc2ccc3[nH]c(=O)[nH]c3c2)cc1 | -16% | -1%
CCOc1cc(/C=N/NC(=O)CCn2nnc3ccccc32)ccc1O | -30% | -11%

Already shown: entries from further up.
SMILES | VACV mCherry inh | VACV Venus inh
Cc1c(C(=O)NC(=S)Nc2ccc(NC(=O)c3cccs3)cc2)oc2ccccc12 | -8% | -8%
CC1Cc2ccccc2N1S(=O)(=O)c1cccc(C(=O)NCc2ccco2)c1 (centres undefined) | -11% | -13%

Carrying on.
SMILES | VACV mCherry inh | VACV Venus inh
Cc1ccccc1-c1nc(CS(=O)(=O)CC(=O)NCc2cccc(Cl)c2)c(C)o1 | -8% | -6%
COC(=O)c1cc2oc(C)cc2n1Cc1ccccc1Cl | -15% | -9%
Cc1ccccc1S(=O)(=O)N1C[C@H]2CON(C)[C@H]2C[C@H]1c1cccc(N2CCOCC2)c1 | i | -8%
Cc1ccc(Cl)c(NC(=O)COC(=O)c2ccccc2C(=O)c2ccc(Cl)c([N+](=O)[O-])c2)c1Cl | ? | ?
CC(C)CC1(C)NC(=O)N(CC(=O)Nc2ccccc2Br)C1=O (centres undefined) | -1% | -6%
COC(=O)c1cc(C(=O)OCC(=O)N2CCCCC2)cc([N+](=O)[O-])c1 | -12% | -4%
CCOc1ccc(N2CC(C(=O)Nc3nnc(Cc4ccc(OC)c(OC)c4)s3)CC2=O)cc1 (centres undefined) | i | 1%
COc1ccc(S(=O)(=O)N2CCOC2CNC(=O)C(=O)NCc2ccco2)cc1OC (centres undefined) | -8% | -8%
COc1ccc(NC(=O)c2sc3nc4n(c(=O)c3c2C)CCC4)c(OC)c1 | 5% | -6%
Cn1c(Cc2ccccc2)nnc1SCC(=O)Nc1ccccc1 | 4% | -2%
COc1ccc(S(=O)(=O)N[C@@H](Cc2ccccc2)C(=O)N2CC[C@@]3(O)CCCC[C@H]3C2)cc1 | . | -19%
COc1ccc(NS(=O)(=O)c2cc(N)ccc2N2CCOCC2)cc1 | ? | -5%
CC1(C(=O)NS(=O)(=O)c2ccc3c(c2)CCO3)CCN1C(=O)CCc1ccc(Cl)cc1Cl (centres undefined) | 4% | -1%
COc1ccc(OC)c(CCNC(=O)c2cc3c(=O)n(C)c4ccccc4c3n2C)c1 | -11% | -17%
Cc1ccc(-n2ncc3c2CC(C)(C)CC3NC(=O)CCc2cnn(C)c2)cc1 (centres undefined) | -16% | -19%
CCCCCCC(O)(CCN1CCCCC1)c1ccccc1 (centres undefined) | -11% | -24%
COc1ccc(CCNC(=O)c2ccc3c(c2)N(Cc2ccccc2F)C(=O)c2ccccc2S3=O)cc1OC (centres undefined) | -25% | -16%
C=CCNC(=O)c1ccc2c3n(nc2c1)-c1ccc(C)cc1CO3 | -11% | ?
N#CCc1c(C#N)c(N)nc(N2CCN(C=O)CC2)c1C#N | i | -14%

Five entries out of the list, ordered by number of heavy atoms, descending.
SMILES | VACV mCherry inh | VACV Venus inh
COc1ccc(CCNC(=O)c2ccc3c(c2)N(Cc2ccccc2F)C(=O)c2ccccc2S3=O)cc1OC (centres undefined) | -25% | -16%
CC1(C(=O)NS(=O)(=O)c2ccc3c(c2)CCO3)CCN1C(=O)CCc1ccc(Cl)cc1Cl (centres undefined) | 4% | -1%
COc1ccc(OC)c(CCNC(=O)c2cc3c(=O)n(C)c4ccccc4c3n2C)c1 | -11% | -17%
Cc1ccc(-n2ncc3c2CC(C)(C)CC3NC(=O)CCc2cnn(C)c2)cc1 (centres undefined) | -16% | -19%
CCCCCCC(O)(CCN1CCCCC1)c1ccccc1 (centres undefined) | -11% | -24%
